# Screening data from PubChem BioAssay.
# rRNA inh HTS = reduced GFP signal of wild-type E. coli, primary screen, bacterial rRNA inhibitor project, GFP/RFP fluorescence, OD600, single point | E. coli WT GFP vs humanized-ribosome RFP mutants, 24 h; active compounds read low; DMSO median 0, no signal -100 | hit rate 1.6% among 350,000 | GFP signal change (wild-type ribosome), % (concentration not given with the values);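 active = significant combined selectivity score with lowered wild-type GFP, culture density cut under 30%, mutant RFP and density less affected; inactive = any of these conditions unmet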; note: one replicate is shown; some compounds called inactive have numbers as strong as hits
# Ecoli growth = E. coli growth inhibition, primary screen, OD600; Escherichia coli growth, 23 h; active compounds read low; OD600 absorbance (test concentration not listed); hit rate 0.21% among 330,000;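 active = OD600 absorbance below the run mean of sample wells minus 3.6 SD, in any replicate, cut at about 0.56 in these data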;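 note: stock transfer was 300 nL into about 60 µL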
# HNF4A DNA FP = change in binding of human HNF4A to DNA, primary screen, biochemical, fluorescence polarization, FITC-DNA | Hepatocyte nuclear factor 4-alpha (Homo sapiens), P41235 | 1 h | activity change, % at 10 µM | hit rate 0.3% among 360,000 | AID 1224865, 2016; in the data active = activity change above about 30%, passing the limit was not always enough;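 note: controls were the assay level and a saturating level of protein; the project sought stronger binding though the title names inhibitors; some compounds called inactive have numbers as strong as hits; positive values seem to mean higher polarization but the record does not say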
# Vif A3G = inhibitors of Vif binding to APOBEC3G peptide, primary screen, biochemical, TR-FRET, GST-Vif 1-94, biotin-A3G peptide, dose response retest (AID 1117319); TR-FRET GST-Vif / biotin-A3G peptide binding; higher % means a stronger effect; test concentration not given here; strong numbers were not always called active; Virion infectivity factor (Human immunodeficiency virus type 1 group M subtype B (isolate …; inhibition, %, or IC50 in µM where a hit was titrated; hit rate 0.57% among 260,000;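 active = above the screen mean plus three standard deviations and confirmed in dose response; inconclusive = results disagree or hit not tested in dose response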;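 note: Vif residues 1-94 fused to GST binding biotinylated APOBEC3G peptide 110-148; 0% = full assay without inhibitor and 100% = GST in place of GST-Vif; retest series ran down from 100 µM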
# ALR inh = inhibitors of human ALR sulfhydryl oxidase, primary screen, biochemical, H2O2 detection, HRP-luminol luminescence, single point. purified ALR, DTT oxidation. inhibition, % (test concentration not listed). FAD-linked sulfhydryl oxidase ALR (Homo sapiens), P55789. AID 485317, 2010. hit rate 3.8% among 290,000;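 active = mean and each replicate at 75% or more; inconclusive = only one of the two met; inactive = neither met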;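 note: stock transfer was 7.5 nL into about 7.5 µL; 0% = neutral wells and 100% = wells with inactivated enzyme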
# Target sequence (P55789 whole entry, looked up): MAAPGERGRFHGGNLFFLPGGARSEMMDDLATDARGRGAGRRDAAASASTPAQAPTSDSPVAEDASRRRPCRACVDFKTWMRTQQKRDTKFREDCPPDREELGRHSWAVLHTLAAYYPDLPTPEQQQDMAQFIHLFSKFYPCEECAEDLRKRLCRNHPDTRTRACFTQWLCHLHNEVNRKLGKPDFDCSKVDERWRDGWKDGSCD
# FGF22 binding = binders of human FGF22 protein, primary screen, FGF22 synaptogenesis inhibitor project, biophysical, thermal shift, single point; recombinant FGF22 thermal shift, SYPRO orange fluorescence; percent of sucrose octasulfate shift, DMSO zero; hit rate 1.5% among 340,000; Fibroblast growth factor 22 (Homo sapiens), Q9HCT0; calls only at 9.99 µM; AID 651658, 2012;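 active = melting point raised past a set limit in the mean and every replicate; inconclusive = no clear call; three in four hits are not shown here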
# Target sequence (Q9HCT0 whole entry, looked up): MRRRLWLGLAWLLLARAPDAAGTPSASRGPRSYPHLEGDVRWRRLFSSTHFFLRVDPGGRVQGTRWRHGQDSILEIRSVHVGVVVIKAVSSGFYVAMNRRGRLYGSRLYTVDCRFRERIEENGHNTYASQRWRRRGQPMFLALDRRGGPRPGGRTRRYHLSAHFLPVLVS
# MLL AF4-AF9 inh = inhibitors of AF4 peptide binding to AF9, primary screen, biochemical, AlphaScreen, biotin-AF4 peptide, FLAG-AF9, single point; Protein AF-9 (Homo sapiens), P42568; inhibition, % at 10 µM; hit rate 0.47% among 350,000; AID 651704, 2012;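 active = every replicate reaching a set inhibition limit, whatever the replicate mean, cut at about 25% in these data; inconclusive = mean inhibition reaches that limit but some replicates miss it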;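 note: 0% = plate neutral control median and 100% = total signal loss; the record names both 10 and 1 µM as test concentration; the first replicate is given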
# Target sequence (P42568 whole entry, looked up): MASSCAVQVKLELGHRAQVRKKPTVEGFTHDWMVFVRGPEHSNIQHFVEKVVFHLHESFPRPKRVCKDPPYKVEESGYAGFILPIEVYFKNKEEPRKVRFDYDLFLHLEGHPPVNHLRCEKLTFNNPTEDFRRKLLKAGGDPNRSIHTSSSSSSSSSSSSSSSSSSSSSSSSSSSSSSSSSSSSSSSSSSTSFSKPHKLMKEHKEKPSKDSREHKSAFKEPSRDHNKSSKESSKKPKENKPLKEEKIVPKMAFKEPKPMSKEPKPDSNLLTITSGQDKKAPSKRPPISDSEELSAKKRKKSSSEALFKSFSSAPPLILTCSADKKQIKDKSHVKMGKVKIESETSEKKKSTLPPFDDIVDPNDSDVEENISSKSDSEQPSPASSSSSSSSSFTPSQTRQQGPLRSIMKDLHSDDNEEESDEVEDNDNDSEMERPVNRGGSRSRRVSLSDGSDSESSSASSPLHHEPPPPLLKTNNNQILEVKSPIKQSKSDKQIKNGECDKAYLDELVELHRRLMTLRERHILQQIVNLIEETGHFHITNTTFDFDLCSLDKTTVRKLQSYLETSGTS
# rRNA inh HTS OD600 = recorded beside rRNA inh HTS, whose call it bears; OD600 change, %; measured here: OD600 growth;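 optical density of the mix in the first replicate; 0 = DMSO median and -100 = no signal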
# rRNA inh HTS RFP = further read-out of rRNA inh HTS, marked with its call; RFP signal change, %; measured here: RFP humanized mutant strains;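 first replicate; 0 = DMSO median and -100 = no signal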
# * = called active by the depositor; i = inactive; ? = inconclusive; / = no result given. The list is partial, so the mix of outcomes need not match the whole.
SMILES,rRNA inh HTS,rRNA inh HTS OD600,rRNA inh HTS RFP,Ecoli growth,HNF4A DNA FP,Vif A3G,ALR inh,FGF22 binding,MLL AF4-AF9 inh
C[C@@H]1CCCCO[C@@H](CN(C)C(=O)c2ccncc2)[C@H](C)CN([C@@H](C)CO)C(=O)c2cc(NS(C)(=O)=O)ccc2O1,4.4,5.0,-3.1,/,/,/,/,i,-3.3
O=C(CSc1nc(=O)n(CCCN2CCOCC2)c2c1CCCC2)Nc1ccc(Cl)cc1,-1.3,-0.4,5.1,0.64,2.2,-8.2%,96.0*,i,2.9
COc1ccc(-c2nnn(CC(=O)N(Cc3ccco3)C(C(=O)NCC3CCCO3)c3ccco3)n2)cc1 (centres undefined),-2.6,2.2,3.6,/,-4.0,/,-4.3,i,-3.2
O=C(NCC1CCCCC1)c1cc(S(=O)(=O)N2CCCCC2)ccc1N1CCOCC1,5.4,-3.2,4.2,0.685,2.4,?,-1.0,i,-6.1
C[C@H](CO)N1C[C@H](C)[C@H](CN(C)C(=O)C2CC2)Oc2cc(/C=C/c3ccccc3)ccc2S1(=O)=O,-5.5,-10.5,5.0,/,/,/,/,i,2.7
O=C(COC(=O)c1c(Cl)cccc1Cl)NCC1CCCO1 (centres undefined),7.0,5.7,0.5,0.655,0.1,/,/,i,-6.6
Cc1noc(C)c1NC(=O)Nc1ccc2c(c1)CC(=O)N([C@@H](C)CO)C[C@H](C)[C@@H](CN(C)C)O2,2.3,-2.7,-0.4,/,/,/,/,i,-2.4
COc1cccc(S(=O)(=O)N[C@H]2C=C[C@H](CC(=O)NCc3ccccc3)O[C@@H]2CO)c1,0.5,6.1,-2.6,/,/,/,/,i,-2.1
COc1ccc(C2/C(=C(\O)c3ccc4c(c3)CC(C)O4)C(=O)C(=O)N2Cc2cccnc2)c(OC)c1 (centres undefined),-0.2,-1.3,-1.7,0.703,-3.5,0.7%,-6.7,i,0.6
Cc1nn(C(C)C(=O)N2CCc3ccccc32)c(C)c1[N+](=O)[O-] (centres undefined),/,/,/,0.667,0.5,-2.3%,/,/,/
CCOc1cc(/C=C2/C(=N)N3OC(C)=CC3=NC2=O)ccc1OC(=O)c1ccco1,8.4,4.8,3.4,0.662,7.1,-2.0%,9.4,i,-0.2
Cc1ccc(S(=O)(=O)Nc2cccc(C(=O)NCc3ccc(S(N)(=O)=O)cc3)c2)cc1,1.5,1.4,1.0,0.675,1.9,-6.8%,-1.5,i,5.3
COc1ccc(-c2nnnn2-c2ccc(F)cc2F)cc1,-14.8,-18.3,-6.3,0.676,1.1,-0.3%,-2.8,i,-2.7
CCS(=O)(=O)N1CCCC(C(=O)NCCN(C)Cc2ccccc2)C1 (centres undefined),/,/,/,0.729,-0.6,5.3%,-3.1,/,/
CCN(C(=O)CCS(=O)(=O)c1cc2c(cc1Cl)NC(=O)CO2)c1ccccc1,-3.7,-1.1,0.2,0.738,-0.9,/,48.8,i,0.4
Cc1ccc2c(c1)c1c3n2CCN(CCC(=O)O)C3CCC1 (centres undefined),7.1,4.6,4.9,0.635,8.1,/,59.1,i,5.0
CN(C)N1C(N)=C(C#N)C(c2ccsc2)C2=C1CC(C)(C)CC2=O (centres undefined),/,/,/,0.697,1.2,-3.6%,-4.5,i,2.2
O=C(N/N=C/c1ccc(O)cc1O)C(=O)N/N=C/c1ccc(O)cc1O,-23.5*,-18.3*,-4.5*,/,-2.7,/,2.9,i,-2.7
Cc1ccc(S(=O)(=O)N(C)C)cc1NC(=S)NC(=O)C12CC3CC(CC(C3)C1)C2,10.9,11.2,-1.3,0.733,1.0,-5.2%,-0.9,i,8.1
CCC1(c2ccc(Cl)cc2)NC(=O)N(CC(=O)NC2(C#N)CCCCC2)C1=O (centres undefined),-1.1,0.5,4.9,0.711,0.4,/,/,i,5.1
Cc1cccc(-n2cnc(C(=O)O)c2)n1,-16.9,-23.9,-2.0,0.676,-5.2,/,7.6,/,1.1
CCOc1ccc(CCNC(=O)COC(=O)c2cccs2)cc1OCC,-1.3,1.2,0.0,0.641,-2.1,/,-9.1,i,-2.4
CCCN1C(=O)C(NC(=O)c2ccncc2)(C(F)(F)F)C2=C1CC(C)(C)CC2=O (centres undefined),/,/,/,0.669,-2.1,3.5%,3.6,/,/
CCC(=O)N1C[C@H](C)[C@H](OC)CN(C)C(=O)c2ccc(NC(=O)C3CC3)cc2OC[C@H]1C,0.9,9.1,0.4,/,/,/,/,i,-1.1
CCCNC(=O)N1CC2(CCN(Cc3cccnc3)CC2)c2c(n(C)c3cc(OC)ccc23)[C@@H]1CO,1.1,7.3,-1.0,/,/,/,/,i,1.8
CN(C)C(=O)C[C@H]1C=C[C@H](NC(=O)NC2CCCC2)[C@H](CO)O1,1.1,-1.3,-2.7,/,/,/,/,i,-1.8
Cc1nn(C(=O)c2nn(C)cc2[N+](=O)[O-])c(C)c1Cl,9.5,7.2,-2.7,0.696,2.4,3.7%,0.8,i,-0.5
CCCCc1c(O)c2ccccc2n(CCCC)c1=O,/,/,/,/,6.4,-6.7%,-3.5,/,/
Cc1ccc(OCCNc2ccc(C(F)(F)F)cc2[N+](=O)[O-])cc1,/,/,/,0.705,4.9,7.0%,2.5,/,/
O=[N+]([O-])c1ccc(N2CCN(Cc3ccc([N+](=O)[O-])o3)CC2)cc1,-23.0*,-9.0*,9.9*,0.652,-1.3,1.8%,-34.2,i,1.4
Cc1cnc([N+](=O)[O-])n1CCOC(=O)NC(=O)c1cccc(F)c1,15.3,-4.4,-5.9,0.67,-2.6,10.7%,-0.1,i,-5.1
Cc1noc(C)c1S(=O)(=O)Nc1cccc2c1O[C@@H](CN(C)Cc1ccc(Cl)c(Cl)c1)[C@@H](C)CN([C@@H](C)CO)C2=O,-3.6,-5.0,-0.1,/,/,/,/,i,2.5
CC1=C(C(=O)Nc2ccc(C(=O)N3CCN(c4ccccc4F)CC3)cc2)SCCO1,-19.3,-3.7,4.4,0.658,2.0,-7.3%,-10.1,i,0.3
O=C(NC1CCN(S(=O)(=O)c2ccc(Cl)cc2)CC1)C1CCCCC1,6.7,6.8,2.0,0.698,-0.3,/,-11.2,i,-2.5
CCCCc1nc2ccccc2c(=O)n1NC(=O)c1c(O)c2cccc3c2n(c1=O)CC3,/,/,/,0.686,-0.9,2.3%,-3.8,/,/
O=S(=O)(NC[C@@H]1[C@H](c2ccccc2)[C@H](CO)N1CC1CC1)c1ccccc1,-1.8,0.3,-1.5,/,/,/,/,i,-0.3
Cc1cc(NC(=O)c2cncc(Br)c2)ccc1NC(=O)c1cc2ccccc2o1,3.5,5.8,-3.0,0.702,22.2,-1.5%,-0.8,i,-0.8
CCOc1ccc(C(=O)NNC(=O)c2cc(S(=O)(=O)N3CCOCC3)ccc2Cl)cc1,6.9,8.8,0.8,0.689,4.0,-13.0%,/,i,-2.0
CN(C)c1ccc(NC(=O)CSc2nnc(-c3cccs3)n2Cc2ccco2)cc1,/,/,/,0.703,-1.8,1.9%,98.9*,/,/
COc1ccc(N(C(=O)c2csnn2)C(C(=O)NC2CCCC2)c2ccccc2)cc1 (centres undefined),6.7,-2.3,0.6,0.664,1.1,/,-1.9,i,2.3
CCOC(=O)c1ccccc1NC(=O)CSc1ccccc1,/,/,/,0.768,-0.8,8.4%,-6.5,/,/
CCOC(=O)C(=O)Nc1ccc(OCc2ccccc2)cc1,-0.8,-6.3,-2.3,0.724,5.2,/,/,i,-1.6
C/C=C/c1ccc([C@@H]2[C@@H](CNC(=O)CC)N(C(=O)COC)[C@H]2CO)cc1,0.9,5.3,-1.2,/,/,/,/,i,-1.6
COc1ccc(-c2csc(N(CCCN(C)C)C(=O)c3cc(OC)c(OC)c(OC)c3)n2)cc1,1.7,9.1,-0.9,0.677,-0.7,-2.6%,-5.1,i,5.3
COc1ccc(-c2cc(C(F)F)n3ncc(C(=O)N4CCc5ccccc54)c3n2)cc1,6.8,5.3,2.3,0.731,-1.3,-3.8%,0.8,i,0.3
COc1ccc(CN(C)C[C@H]2OCCCC[C@@H](C)Oc3ccc(NC(=O)CCCCCC(=O)Nc4ccccc4N)cc3C(=O)N([C@H](C)CO)C[C@@H]2C)cc1,7.3,13.2,-1.8,/,/,/,/,i,5.6
CCOC(=O)c1sc(NC(=O)CSc2nc3ccccc3o2)c(C(=O)OCC)c1C,/,/,/,0.7,3.0,1.3%,7.7,/,/
Cc1ccc(Nc2ncccc2C(N)=O)cc1[N+](=O)[O-],-24.8,-22.2,-2.7,0.691,-1.5,-0.1%,-0.2,i,1.7
Cc1ccc(S(=O)(=O)/N=C(/Nc2ccc(F)cc2F)c2ccc(F)cc2)cc1,4.2,15.0,1.1,0.714,-0.4,-3.0%,-3.5,i,-1.2
O=C(CCN1C(=O)C2CC=C(Cl)CC2C1=O)NCc1ccco1 (centres undefined),/,/,/,0.752,-1.3,21.9%,3.5,/,/
CC1=C(C)CC(C(=O)N2CCN(Cc3ccccc3)CC2)C(C(=O)O)C1 (centres undefined),/,/,/,0.721,-2.1,8.1%,-5.5,/,/
C[C@H]1CN([C@@H](C)CO)C(=O)CCCn2nncc2CO[C@H]1CN(C)CC1CCCCC1,0.1,5.3,1.6,/,/,/,/,i,-0.9
OC(CN1CCN(Cc2ccccc2)CC1)Cn1c2ccccc2c2ccccc21 (centres undefined),/,/,/,0.696,-1.2,-3.8%,-4.6,/,/
COc1ccc(N2C(=O)CSC23C(=O)N2CCCc4cccc3c42)cc1 (centres undefined),/,/,/,0.708,-1.5,10.2%,10.0,/,/
Cc1nnc(NC(=O)C2CC(=O)N(C(C)c3ccccc3)C2)s1 (centres undefined),2.6,14.8,-2.6,0.697,-13.1,/,-4.2,i,0.1
COc1cccc(-n2c(SCC(=O)NCc3ccco3)nnc2-c2c[nH]c3ccccc23)c1,-7.5,-14.1,-6.0,0.694,0.6,-2.9%,-10.7,i,5.4
c1csc(C2C3=C(Nc4ncnn42)c2ccccc2OC3)c1 (centres undefined),/,/,/,0.706,-1.2,3.6%,-0.5,/,/
CC1C(c2ccccc2)OCCN1C(=S)NC(=O)c1ccccc1 (centres undefined),2.2,6.0,-4.6,/,-0.7,-6.7%,/,i,-0.4
Cc1noc(C)c1NC(=O)Nc1ccc2c(c1)CC(=O)N([C@@H](C)CO)C[C@H](C)[C@@H](CN(C)CC1CCCCC1)O2,2.3,1.9,1.1,/,/,/,/,i,-2.3
CSc1nc2ccc(NS(=O)(=O)c3ccc(Cl)s3)cc2s1,/,/,/,0.588,3.0,4.2%,-40.0,/,/
CCN(C(=O)CSc1ncccn1)C1CCS(=O)(=O)C1 (centres undefined),4.5,16.8,1.2,0.709,-0.2,-5.0%,-5.5,i,-0.6
